Mtb growth: M. tuberculosis H37Rv growth inhibitors, H37Rv strain (AID 1626). M. tuberculosis H37Rv growth inhibition; higher % means a stronger effect. inhibition, % at 10 µM, or IC50 in µM where a hit was titrated. 220,000 compounds, 0.95% hits;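 active = confirmed in a dose series; inconclusive = inhibition above 80% but not taken into the dose series; inactive = below 80% or under 30% at every dose of the series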;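 note: bacteria incubated seven days before Alamar blue readout; 0% = bacteria only wells and 100% = bacteria with antibiotic wells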
Arbovirus inh: blocks arbovirus infection | 200,000 compounds, 0.37% hits | inhibition, % at 10 µM | arbovirus infection cell-based antiviral screen;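 active = inhibition from about 30%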;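 note: bluetongue infection of BSR cells; cell survival read as ATP light after 72 h; 0% = infected wells without compound and 100% = uninfected wells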
RecA intein inh: inhibitors of M. tuberculosis RecA intein splicing; 290,000 compounds, 0.75% hits; cell-free RecA intein splicing, fluorescence; P9WHJ3; AID 2221; inhibition, %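 (about 9 µM by stock and volumes)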; in the data active = inhibition above about 30%; inconclusive = no clear call, values can overlap the other calls;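 note: 0% = vehicle wells and 100% = reference inhibitor control wells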
Target sequence (P9WHJ3 whole entry, looked up): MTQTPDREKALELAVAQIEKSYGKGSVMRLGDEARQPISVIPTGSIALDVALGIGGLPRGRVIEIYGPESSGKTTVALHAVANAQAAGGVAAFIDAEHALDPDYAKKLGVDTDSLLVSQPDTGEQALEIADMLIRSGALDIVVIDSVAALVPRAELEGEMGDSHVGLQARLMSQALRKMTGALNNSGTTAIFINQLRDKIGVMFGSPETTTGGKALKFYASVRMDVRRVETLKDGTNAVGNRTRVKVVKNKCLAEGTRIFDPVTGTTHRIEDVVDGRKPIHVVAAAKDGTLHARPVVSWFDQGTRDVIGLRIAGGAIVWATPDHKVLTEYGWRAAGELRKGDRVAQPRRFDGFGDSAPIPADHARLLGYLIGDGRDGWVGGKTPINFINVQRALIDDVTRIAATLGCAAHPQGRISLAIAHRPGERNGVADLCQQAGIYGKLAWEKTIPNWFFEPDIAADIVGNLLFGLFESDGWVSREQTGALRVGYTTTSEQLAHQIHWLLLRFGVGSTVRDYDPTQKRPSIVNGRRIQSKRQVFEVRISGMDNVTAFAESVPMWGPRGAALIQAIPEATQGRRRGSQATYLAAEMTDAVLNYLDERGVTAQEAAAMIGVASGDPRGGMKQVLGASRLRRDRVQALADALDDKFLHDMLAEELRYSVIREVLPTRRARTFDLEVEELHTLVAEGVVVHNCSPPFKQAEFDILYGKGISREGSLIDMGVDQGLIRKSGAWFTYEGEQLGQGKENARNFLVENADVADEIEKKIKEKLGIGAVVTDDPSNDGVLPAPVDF
Mtb bLac sens: beta-lactam sensitization of Mtb H37Rv; M. tuberculosis H37Rv growth with meropenem, percent inhibition; hits of this screen are not shown here; inhibition, % at 25 µM; 330,000 compounds, 0.27% hits;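 active = about 74% or more and at least 40 points above the plate without the antibiotic, then above 30% in a dose series; inconclusive = first-round hits that could not be retested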;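 note: growth measured after seven days incubation then overnight dye step; 0% = bacteria only wells and 100% = bacteria with antibiotic; twin plates without the antibiotic show which effects depend on it; some results filed as inactive read as strong as hits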
YopH inh: YopH (Yersinia) phosphatase inhibition; fluorescence Ex485/Em525; inhibition, %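 (about 10 µM by stock and volumes)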; 140,000 compounds, 0.16% hits; AID 898;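 active = inhibition of 50% or more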;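 note: controls were vehicle for no effect and minimum signal wells for full effect; inactives centre near -20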
Arbovirus inh repeat: second read-out of Arbovirus inh, no call of its own (marks repeat the call); inhibition, %; measured here: 10K subset replicate screen; many hits read low in the repeat;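 first of two repeat runs on a subset; 0% = infected and 100% = uninfected wells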
An asterisk follows results filed as active; ? = inconclusive; . = no result given. A portion of the library; count on the stated rates, not on these rows.

SMILES	Mtb growth	Arbovirus inh	RecA intein inh	Mtb bLac sens	YopH inh	others
COc1ccccc1N1CCN(S(=O)(=O)c2ccc(-c3cnc(C4CC4)o3)cc2)CC1	.	.	6.4	5	.
Cc1c(C)c2c(OCC(=O)NCC(C)C)cc3c(c2oc1=O)CCC(C)(C)O3	.	.	2.6	-7	.
O=C(NCc1nnc(SCC(=O)N2CCN(c3ccccc3)CC2)o1)c1c(F)cccc1F	.	.	-0.5	-10	.
CN1CC(C(=O)c2cccc(C(F)(F)F)c2)C(c2ccc(Cl)cc2)C1 (stereo not given)	.	.	1.4	4	.
COC(=O)C1CCN(C(=O)c2ccc(OC3CCN(Cc4ccccn4)CC3)cc2)CC1	3%	6	0.7	10	.
C/C(=N/NC(=O)CNC(=O)COc1cccc(C)c1)c1ccco1	-8%	.	-1.5	-10	.
Cc1ccc(Nc2nc(-c3c(C)nc4ccccn34)cs2)cc1	62%	0	16	81	7
C/C(=N\NC(=O)Cn1nc(C)c([N+](=O)[O-])c1C)c1ccc(O)cc1	1%	9	-3.1	1	1
COC(=O)c1ccc(C)c(NC(=O)c2nn(C)c(=O)c3ccccc23)c1	-12%	-10	0.7	-1	-3
Cc1ccc(C(C)C)c(OCC(=O)N/N=C/c2ccc(S(=O)(=O)O)o2)c1	.	.	-1.6	1	.
COc1cc(OC)cc(C(=O)O/N=C(\N)c2ccccn2)c1	6%	.	-0.3	-4	.
CCn1c2ccccc2c2nnc(SCC(=O)NC3CCS(=O)(=O)C3)nc21 (stereo not given)	4%	-7	-0.1	-11	0
N#Cc1ccsc1NC(=O)c1cnccn1	2%	1	-0.1	-3	1
O=C1CC[C@@H](CN(Cc2ccccn2)Cc2nc(-c3ccc(C(F)(F)F)cc3)no2)N1	3%	-2	1.8	-3	.
CCOC(=O)c1ccc(NC(=O)C2CCCN(c3cnccn3)C2)cc1 (stereo not given)	.	.	2.3	-2	.
CC(=O)Nc1ccc(NC(=O)C/C(C)=N/NC(=O)C(=O)N2CCCC2)cc1	-5%	0	25	-8	-33
CN(C(=O)c1ccc(N2CCOCC2)c([N+](=O)[O-])c1)C1CCCCC1	.	.	-1.5	-10	.
CCOc1cc(S(=O)(=O)N2CCCCC2)ccc1Cl	.	1	2.4	-4	-6
Fc1ccc(Cn2c(SCc3ccc(F)c(F)c3)nnc2C(F)(F)F)cc1	11%	-24	9.2	-1	-30
CCC(=O)N1CCc2cc(S(=O)(=O)NCCC(=O)Nc3ccc(OC)cc3)ccc21	.	.	0.0	3	.
Cc1[nH]c2ccccc2c1C(=O)CSc1ccc(Cl)cc1	-1%	-3	0.5	-8	.
Cc1ccc(S(=O)(=O)C(F)(F)F)cc1NC(=O)c1cccnc1	-4%	0	.	14	-6
COc1ccc(NC(=S)N(CCCOC(C)C)C2CCN(C(C)=O)CC2)cc1Cl	.	.	-0.9	1	.
Nc1cc(Cl)ccc1N1CCCC1	-6%	1	-0.1	-2	.
CNS(=O)(=O)c1cc(Cl)ccc1Sc1ccccc1C(=O)O	-8%	.	-5.0	4	.

Brought forward from above: three compounds, followed by the next part.
SMILES	Mtb growth	Arbovirus inh	RecA intein inh	Mtb bLac sens	YopH inh	others
COc1ccc(NC(=S)N(CCCOC(C)C)C2CCN(C(C)=O)CC2)cc1Cl	.	.	-0.9	1	.
Nc1cc(Cl)ccc1N1CCCC1	-6%	1	-0.1	-2	.
CNS(=O)(=O)c1cc(Cl)ccc1Sc1ccccc1C(=O)O	-8%	.	-5.0	4	.
CCN1CCN(c2ccc(NC(=O)c3cccc(N4CCCC4=O)c3)cc2)CC1	.	.	-5.3	-2	.
COc1ccc(-c2csc(N3C(=O)CNC3=S)n2)cc1	5%	-3	10	-7	-9
Cc1cccc(CC(=O)Nc2ccc(C(=O)N3CCOCC3)cc2)c1	.	.	-2.0	0	.
OC(CNC1CCCCC1)COCCOc1ccc(Br)cc1 (stereo not given)	-2%	-32	-3.0	5	15
COc1ccc(C(C)(C)C)cc1S(=O)(=O)N1CCC(C(N)=O)CC1	1%	2	-3.0	-1	-11
O=C(Cc1cc(=O)[nH]c(=O)[nH]1)N1CCN(C(=O)c2ccco2)CC1	0%	7	-0.1	-4	-35	Arbovirus inh repeat=2
CC(Oc1ccc(Cl)cc1)c1ccnn1S(C)(=O)=O (stereo not given)	0%	7	-0.9	-7	-16
CCC(Nc1ccc(OC)cc1)C(=O)N/N=C/c1ccc([N+](=O)[O-])cc1 (stereo not given)	?	4	-3.5	1	-27
CCc1ccc2c(c1)C(NC(C)=O)C(=O)N2CC (stereo not given)	-1%	1	1.4	-4	-20	Arbovirus inh repeat=0
CCOC(=O)C1=C(C)OC(N)=C(C(=O)OCC)[C@@]12C(=O)N(CC(N)=O)c1ccccc12	3%	9	0.9	-1	-32
COc1ccc(Oc2c(C)oc3c(CN(C)C)c(O)ccc3c2=O)cc1	-6%	7	0.4	5	-3
O=C(NCc1ccccc1)Nc1cc(Cl)ccc1Cl	-4%	.	-2.3	-1	.
CCn1c2ccccc2c2cc(NC(=O)C(=O)N3CCOCC3)ccc21	0%	-8	0.4	0	.
CCS(=O)(=O)n1nc(-c2ccco2)nc1SC	-9%	0	2.5	9	-1
O=C(NCC1CCCO1)C1c2ccccc2C(=O)N1C1CCCCCCC1 (stereo not given)	.	7	-8.1	-1	-21
O=C(N/N=C/c1ccco1)c1cc(-c2ccc(Br)s2)[nH]n1	54%	.	0.8	6	.
C/C(=N\NC(=O)c1cccc(S(=O)(=O)N2CCOCC2)c1)c1cc2ccccc2o1	-7%	.	0.0	7	.
Cc1[nH]nc(Nc2ccc(Br)cc2)c1[N+](=O)[O-]	2%	.	0.0	-6	.
O=C(c1ccccc1F)c1cn(Cc2ccc(F)cc2)c2ccccc12	3%	-2	-0.7	1	-22
O=C(N1CCOCC1)C12CC3CC(C1)CC(c1ccccc1)(C3)C2	0%	3	1.0	5	-12
Cc1ccc2nc(CSc3nc(C)cc(C)c3C#N)[nH]c2c1	-1%	4	-36	10	-12
O=C(c1ccc(Cl)cc1)C1CCCN(Cc2ccc3nonc3c2)C1 (stereo not given)	56%	23	8.6	20	.
O=C(N/N=C/c1ccccc1)c1c(O)c2ccccc2[nH]c1=O	?	7	-3.9	100	-31
COc1ccc(-n2cc(CNC3CCOCC3)c(-c3cccc(F)c3)n2)cc1	10%	-16	-0.5	-3	.
Cc1ccc(NC(=O)CCN2CC(C)OC(C)C2)cc1C (stereo not given)	.	.	-0.1	-6	.

Fetched by compound from the entries so far:
SMILES	Mtb growth	Arbovirus inh	RecA intein inh	Mtb bLac sens	YopH inh	others
COc1ccccc1N1CCN(S(=O)(=O)c2ccc(-c3cnc(C4CC4)o3)cc2)CC1	.	.	6.4	5	.
CCC(=O)N1CCc2cc(S(=O)(=O)NCCC(=O)Nc3ccc(OC)cc3)ccc21	.	.	0.0	3	.
Cc1[nH]c2ccccc2c1C(=O)CSc1ccc(Cl)cc1	-1%	-3	0.5	-8	.
Cc1ccc(S(=O)(=O)C(F)(F)F)cc1NC(=O)c1cccnc1	-4%	0	.	14	-6

(cont.)
SMILES	Mtb growth	Arbovirus inh	RecA intein inh	Mtb bLac sens	YopH inh	others
O=C(O)C1=C[C@@H](c2ccc3c(c2)OCO3)C[C@@H](OCCCCO)O1	-7%	5	-5.2	-3	.
Cc1nnc(SCC(=O)N2CC(=O)Nc3ccccc32)s1	-7%	4	-0.2	-2	.
Cc1c2c(c(C)n1C)C(C(=O)NC1CCCCC1)N(Cc1ccccc1)C2=O (stereo not given)	4%	1	11	-6	.
Cn1cc(Br)c(C(=O)Nc2sc3c(c2C#N)CCC3)n1	-1%	.	1.8	-1	.
COc1ccc(C(=O)/C=C/Nc2ccc(S(=O)(=O)Nc3nc(C)cc(C)n3)cc2)c(OC)c1	-1%	.	-30	-2	.
O=C1C2CCCN2C(c2ccncc2)N1c1ccc(Cl)c(Cl)c1 (stereo not given)	-12%	6	3.3	-4	-15
Cc1ccc(N(C(=O)c2ccccc2Cl)C2=NC(C)CS2)c(C)c1 (stereo not given)	9%	6	16	3	-4
O=c1cc(CNc2cc(Cl)ccc2Cl)nc2sccn12	7%	-3	-2.7	4	-11
O=C(O)CSc1cccc[n+]1[O-]	-4%	2	7.6	-3	-15
COc1ccc(C(C)NC(=S)NCc2ccc(F)cc2)cc1OC (stereo not given)	.	.	-0.1	1	.
CN(C)c1oc(-c2ccccc2[N+](=O)[O-])nc1C#N	-12%	.	-6.4	0	.
CCC1COCCS(=O)(=O)N1Cc1ccc(F)cc1 (stereo not given)	.	.	-0.1	-13	.
COc1cccc(N2CCN(C(=O)CN(C)S(=O)(=O)c3ccc4c(c3)CCC(=O)N4)CC2)c1	5%	1	.	5	-42	Arbovirus inh repeat=2
CCOC(=O)c1cc(Br)c(=O)n2ccccc12	.	-4	-5.3	-10	-68
C=CCn1c(SCC(=O)N2CCCCCC2)nc2ccccc2c1=O	.	.	1.0	5	.
CC(=O)c1cccc(N(CC(=O)N2CCOCC2)S(C)(=O)=O)c1	-13%	-2	-1.3	-12	-11
O=S(=O)(c1cccs1)N1CCN(c2ccc(F)cc2)CC1	.	.	2.6	-3	.
C=CCC(c1ccccc1F)N(CCN1CCOCC1)C(=O)Nc1cccc(Cl)c1 (stereo not given)	4%	3	7.2	4	-6
Cc1cc(NC(=O)CSc2nc(CCC3CCCC3)nc3ccccc23)no1	-5%	19	19	-8	14
O=C(NCCc1ccccc1)C1(c2ccccc2)CC1(Cl)Cl (stereo not given)	-22%	6	-0.3	-6	-21
CC(C)C(=O)N(Cc1ccc2c(c1)OCO2)Cc1ccccn1	-6%	-8	-0.3	-6	-53
CCCCC(CC)CNC(=O)c1cccs1 (stereo not given)	1%	-7	-1.6	-1	-28	Arbovirus inh repeat=1
CCN=C1S/C(=C\c2ccc(O)c(OCC)c2)C(=O)N1CC	-1%	-8	0.8	-3	-34
COc1ccc(CNn2c(-c3ccccc3F)nc3ccccc3c2=O)cc1OC	0%	9	0.0	-3	.
O=C1CC(N2CCN(c3ccccc3)CC2)C(=O)N1CCc1ccccc1 (stereo not given)	-2%	-1	1.6	-3	-21

The list goes on.
SMILES	Mtb growth	Arbovirus inh	RecA intein inh	Mtb bLac sens	YopH inh	others
Cn1c(CNC(=O)c2ccccc2F)nnc1SCC(=O)Nc1nnc(C2CC2)s1	.	.	6.2	-5	.
Cc1cc(C)c(S(=O)(=O)N2CCN(C(=O)c3ccc(-n4cncn4)c([N+](=O)[O-])c3)CC2)c(C)c1	.	.	-0.2	-11	.
Cc1ccccc1NC(=O)c1cn2c(nc3ccccc32)c(C#N)c1C	-2%	.	-10	2	.
Cc1cccc(OCC(O)Cn2c(N3CCCCC3)nc3c2c(=O)n(C)c(=O)n3C)c1 (stereo not given)	.	.	-2.1	-5	.
CNC(=S)SCCOc1ccccc1	3%	.	-1.3	-6	.
COc1cccc(C(=O)Nc2cccc(-c3ccccc3)c2)c1	.	.	9.3	2	.
O=C(NCc1ccccc1)c1cccnc1	.	.	0.7	-2	.
Cn1c(NC(=O)c2cccs2)c(-c2cccs2)c(=O)c2ccccc21	-2%	5	-1.1	-2	-62
O=S(=O)(c1ccc(F)cc1)N1CCN(Cc2ccccn2)CC1	-7%	3	0.4	-7	.
CC1CCN(C(=O)/C(=C\c2ccccc2)NC(=O)c2ccccc2)CC1	.	.	1.9	0	.
COc1ccc(C(=S)N2CCOCC2)cc1OC(=O)c1ccccc1	.	.	3.5	3	.
Cn1nnnc1SCC(=O)NCc1ccccc1	-2%	-2	5.2	-4	-20
O=C(NCCCN1CCOCC1)C(=O)N/N=C/c1ccccc1O	-4%	.	-3.9	-2	.
CC(=O)Nc1ccccc1C(=O)OCc1cccc(F)c1	9%	-8	1.6	-2	.
O=C(NCc1ccco1)C1CCCN1S(=O)(=O)c1ccc2ccccc2c1 (stereo not given)	-1%	-7	-1.0	-4	-16
COc1ccccc1NS(=O)(=O)c1c(C(=O)N2CCCC2)c(C)n(C)c1C	.	.	-2.0	20	.
COC(=O)c1cc(=O)n(Cc2ccc3c(c2)OCO3)c(=Nc2ccc(F)c(Cl)c2)s1	1%	-29	1.8	-4	-65
Cc1cc(/C=C2\C(=O)NC(=O)N(Cc3ccco3)C2=O)c(C)n1-c1ccc(C(=O)O)cc1	-2%	.	-4.2	-2	.
CC(=O)c1ccc(OC(=O)COc2ccccc2Cl)cc1	.	.	13	-1	.
CCOC(=O)c1c(C)[nH]c(C(=O)Cn2nnc(-c3ccccc3)n2)c1C	-1%	4	-2.4	-3	-37
O=C(O)CC(C(=O)OCC1CCCO1)N1CCOCC1 (stereo not given)	-1%	1	.	6	-52

Screening data from PubChem.
